High-throughput results as filed in PubChem.
VDR inh = blocks the human vitamin D receptor; P11473; VDR-SRC2-3 peptide fluorescence polarization, 2 h; Potency, µM, inactives show max response, negative = inhibition, usual class: inhibitors; 400,000 compounds, 0.93% hits; active = well fitted inhibition curve with a large enough effect; inconclusive = small, poorly fitted or top-dose-only effect, or another doubt; inactive = no such curve, though single readings can be large or run the other way; also: series mostly up to about 120 µM
Target sequence (P11473 whole entry, looked up): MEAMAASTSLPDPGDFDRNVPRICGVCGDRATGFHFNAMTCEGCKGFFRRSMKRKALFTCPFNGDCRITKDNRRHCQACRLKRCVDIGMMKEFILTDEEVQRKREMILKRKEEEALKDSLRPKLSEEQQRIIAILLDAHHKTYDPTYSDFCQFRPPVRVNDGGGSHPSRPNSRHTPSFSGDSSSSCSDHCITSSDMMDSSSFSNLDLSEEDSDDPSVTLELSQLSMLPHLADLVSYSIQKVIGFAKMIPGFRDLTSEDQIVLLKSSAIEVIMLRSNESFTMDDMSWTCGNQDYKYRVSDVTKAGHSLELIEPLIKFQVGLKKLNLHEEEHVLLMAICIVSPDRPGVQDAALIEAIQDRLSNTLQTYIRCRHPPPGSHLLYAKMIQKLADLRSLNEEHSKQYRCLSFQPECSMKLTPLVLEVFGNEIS
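Two reagent solutions held at 4 deg C in the dark were dispensed, compounds pinned at 23 nl, and the mixture incubated 2 h at room temperature. Read-out: fluorescence polarization of VDR–SRC2-3 peptide binding.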
* hit, by the source's call; ? = inconclusive; & = joins results of further samples. % is scaled to controls: 0 for no effect and ±100 for the full control effect; potency is read from the fitted curve at half-maximal effect. The list is partial (hit frequency here may not be typical).

canonical_smiles | VDR inh
COc1cc2c3cc1Oc1cc(ccc1O)C[C@@H]1c4c(cc(OC)c(O)c4Oc4cccc(c4)C[C@@H]3N(C)CC2)CC[N+]1(C)C | -17%
Cc1ccccc1CCNCc1cc2cccc(C)c2[nH]c1=O | -5%
CC(=O)N1N=C2C3CCN(CC3)C2C1c1ccc(F)cc1 (configuration not stated) | -16%
O=C1/C(=C\c2ccc([N+](=O)[O-])cc2)N2CCC1CC2 | ?
CCCCNS(=O)(=O)c1ccc(OCC(=O)N2CCN(Cc3ccc4c(c3)OCO4)CC2)cc1 | 3%
Fc1ccc2c(c1)nnn2C1CCN(Cc2nnnn2CCc2ccccc2)CC1 | 6%
O=C(Nc1cccc(OC(=O)N2CCCCC2)c1)N1CCOCC1 | -4%
COC(=O)C1=C(c2ccc(S(C)(=O)=O)cc2)C[C@@H]2CC[C@H]1N2C(=O)NCCCOC(C)C | -27%
CC(C)N1C(=O)c2ccccc2NS1(=O)=O | -7%
Cn1cccc1-c1cccnc1 | 3%
COc1ccc2c(c1OC)C(=O)OC2c1c(O)n(C2CCCCC2)c(=O)[nH]c1=O (configuration not stated) | -1%
CN1CCC2(CC1)NC(=O)C1=C(CN(C)CC1)N2 | -15%
CCC[C@H](N[C@@H](CCC)[C@H](O)c1ccccc1)[C@H](O)c1ccccc1 | 2%
O=C1CCCCC1CN1CCCCC1 (configuration not stated) | 2%
CCN1C(=O)C(=Cc2cc(C)n(C3CC3)c2C)C(=O)N(CC)C1=S | 6%
COC(=O)C1=C(c2ccc(OCc3ccccc3)cc2)C[C@@H]2CC[C@H]1N2C(=O)NCc1ccc([N+](=O)[O-])cc1 | -10%
COC(=O)C1=C(c2ccc(F)cc2OCc2ccccc2)C[C@@H]2CC[C@H]1N2C(=O)NCc1ccco1 | -24%
CCOc1cc(CNCCc2c[nH]c3ccccc23)cc(Cl)c1OCC | -11%
Clc1cccc(C2NCCc3[nH]cnc32)c1 (configuration not stated) | 17%
CC(C)CCOP(N)(=O)Oc1ccccc1Cl (configuration not stated) | 2%

An excerpt taken from the entries so far, for reference:
canonical_smiles | VDR inh
COc1cc2c3cc1Oc1cc(ccc1O)C[C@@H]1c4c(cc(OC)c(O)c4Oc4cccc(c4)C[C@@H]3N(C)CC2)CC[N+]1(C)C | -17%
Cc1ccccc1CCNCc1cc2cccc(C)c2[nH]c1=O | -5%
CC(=O)N1N=C2C3CCN(CC3)C2C1c1ccc(F)cc1 (configuration not stated) | -16%

Continued:
canonical_smiles | VDR inh
CC1=CC(C)CC(C)OC(=O)CC(c2ccc(O)cc2)NC(=O)C(Cc2c(Br)[nH]c3ccccc23)N(C)C(=O)C(C)NC(=O)C(C)C1 (configuration not stated) | -20%
CCOC(=O)c1c(C)n(C(C)C)c2ccc(OC)cc12 | -10%
O=C(c1ccc2c(c1)N(Cc1ccc(F)cc1Cl)C(=O)c1ccccc1S2)N1CCC2(CC1)OCCO2 | 0%
CCN(CC)C(=O)c1ccc(NC(=O)c2ccc(-c3nn(C)c(=O)c4ccccc34)cc2)cc1 | -7%&-4%
N#Cc1ccccc1Cn1cc(C(=O)c2ccco2)c2ccccc21 | -10%
CNC(=O)Oc1ccc(N(C)C)cc1C(C)C | -8%
CCN(CC)c1ccc(/C=C/[N+](=O)[O-])cc1 | 18µM*
c1ccc(CCN2CCC(N3CCN(c4ccccc4)CC3)CC2)cc1 | 16%
CC12CCC(O)CC1CCC1C2CCC2(C)C(C(=O)CC(O)C(F)(F)F)CCC12 (configuration not stated) | -8%
Cc1cc(OCC(=O)NCc2cccnc2)c2c3c(c(=O)oc2c1)CCCC3 | -18%
COc1ccc(Oc2cc(NC(=O)c3nn(C)cc3[N+](=O)[O-])cc([N+](=O)[O-])c2)cc1 | -13%
CN1CCCN(C(=O)COc2ccc(F)cc2Cl)CC1 | 12%
CN(C)c1ccc(/C=C2\CC3C4CC=C5CC(O)CCC5(C)C4CCC3(C)C2=O)cc1 (configuration not stated) | -10%
CCOc1ccc(-n2c(CC)nc3ccccc3c2=O)cc1 | -4%
COc1cccc(CN2CCN(Cc3cccc(F)c3)CC2)c1 | -12%
Cc1ccccc1CN1CCN(c2ccc(Cl)cc2)CC1 | -13%
CC[C@H]1CN2CCC1C[C@@H]2[C@H](O)c1ccnc2ccc(OC)cc12 (some centres not stated) | -5%
CCOP(=O)(OCC)C(O)c1ccc(OC)c(OC)c1 (configuration not stated) | -2%
CC(=NCCC1=CCCCC1)c1c(O)n(-c2ccccc2)c(=O)[nH]c1=O | 13%
NC(N)=Nc1ccc2[nH]c3c(c2c1)C[C@@]1(O)[C@H]2Cc4ccc(O)c5c4[C@@]1(CCN2CC1CC1)[C@H]3O5 | 35µM*

(cont.)
canonical_smiles | VDR inh
CC1([N+](=O)[O-])COP(=O)(Nc2ccc(Cl)cc2)OC1 (configuration not stated) | 89µM*
O=C(CCCc1ccccc1)NCCc1cnc[nH]1 | 7%
CC(=O)CC(=O)C1C(=O)N(C)C(=O)N(C)C1=O | -21%
CC(C)(Cc1c[nH]c2ccc(Cl)cc12)NCCOc1ccccc1OCC1CC1 | 3%&-1%
CC12CCC3C4CCC(=O)C(O)=C4CCC3C1CCC2OC(=O)CCC1CCCC1 (configuration not stated) | 0%
c1ccc(CC(NCc2ccco2)c2ccccc2)cc1 (configuration not stated) | -11%
Cc1cc(C(=O)Nc2ccc3c(c2)OCCO3)nn1C(C)(C)C | -26%
COc1cc(C(=O)OC2C[C@H]3CC[C@@H](C2)N3C)ccc1O (some centres not stated) | 0%&9%
CCC(CO)Nc1ccc([N+](=O)[O-])c2cccnc12 (configuration not stated) | -3%
O=C(C(=O)N1CCOCC1)c1cn(Cc2ccccc2Cl)c2ccccc12 | 1%
CCc1ccc(C2=NN(CCC(=O)N3CCC4(CC3)OCCO4)C(=O)CC2)cc1 | 2%
CCN(CC)c1ccc(N=Cc2c(O)n(Cc3ccccc3)c(=O)[nH]c2=O)cc1 | -6%&-11%
CCCCn1c(NC(=O)c2ccco2)c(C(=O)OCC)c2nc3ccccc3nc21 | -72%
CCOc1cc(CNCCc2ccccc2F)ccc1OC | -21%
CN1CCc2cc3c(cc2C1)OCO3 | -1%
COc1ccc(C(=O)NC(=S)N2C[C@H]3C[C@H](C2)c2cccc(=O)n2C3)cc1 | -8%
COC(=O)C1=C(c2cccc(OC)c2OC)C[C@@H]2CC[C@H]1N2C(=O)NC1CC1 | -6%
CCCc1cc(=O)oc2cc(OCC(=O)N3C[C@H]4C[C@@H](C3)c3cccc(=O)n3C4)ccc12 | -14%
COc1cc(C=C2C(=O)NC(=O)NC2=O)ccc1OS(=O)(=O)c1ccccc1[N+](=O)[O-] | 45µM*
CNC(=O)c1cccn(Cc2cc(C(F)(F)F)cc(C(F)(F)F)c2)c1=O | -10%

Following part:
canonical_smiles | VDR inh
Cn1cc(Br)c(C(=O)Nc2ccc3c(C(F)(F)F)cc(=O)oc3c2)n1 | 0%
Cc1cccc(-n2c(O)c(/C=C/C=Nc3ccccc3)c(=O)[nH]c2=O)c1 | 9%
Oc1ccc(O)c2c1C1(Cl)C(Cl)=C(Cl)C2(Cl)C1(Cl)Cl | 11%
CCOc1cc(CN2CCN(C(=O)Cc3ccccc3)CC2)ccc1OC | 1%
O=C(N/N=C/c1c(O)n(CCc2ccc(F)cc2)c(=O)[nH]c1=O)c1ccncc1 | -21%
O=[N+]([O-])c1ccc(N2CCOCC2)c2cccnc12 | -9%
Cc1c(C=C2C(=O)NC(=O)NC2=O)c(=O)n(-c2ccccc2)n1C | 4%
CN1CCCC(C(=O)c2ccc(Cl)cc2)C1 (configuration not stated) | -17%
COc1ccc(NP(=O)(Oc2cccc(C)c2)Oc2cccc(C)c2)cc1OC | -16%
Cc1nc2ccccc2c(=O)n1-c1ccc(F)cc1F | 11%
O=c1cccc2n1CC1CC2CN(S(=O)(=O)c2ccccc2)C1 (configuration not stated) | 3%
CCN1CCC(O)(c2ccccc2)C(C(=O)c2ccccc2)C1 (configuration not stated) | ?
CC/C(=N\N1CCCCCC1)c1c(O)n(-c2ccccc2C)c(=O)[nH]c1=O | -12%
C=CCC1(Cc2ccsc2)C(=O)NC(=O)NC1=O | -16%
O=C1NC(=O)N(Cc2ccco2)C(=O)/C1=C/c1cccn1CCOc1ccccc1Cl | ?
CCCCn1c(O)c(/C=N/N2CCCCC2c2cccnc2)c(=O)[nH]c1=S (configuration not stated) | -2%
CC12CC(=O)C3C(CCC4CC=CCC43C)C1CCC2=O (configuration not stated) | -6%
O=c1[nH]c(O)c(N=Nc2ccc(S(=O)(=O)N3CCOCC3)cc2)c(=O)[nH]1 | -3%
CCOP(=S)(OCC)N1CCOCCOCCN(P(=S)(OCC)OCC)CCOCCOCC1 | -11%
Cc1ccc(N2C(=O)NC(=O)/C(=C/c3ccc(-c4ccc(C(=O)O)c(Cl)c4)o3)C2=O)cc1 | ?

Further results follow:
structure	VDR inh
COC(=O)C1=C(c2ccccc2)C[C@@H]2CC[C@H]1N2C(=O)N1CCC(O)CC1	-6%
CC(=O)c1cccc(OCC(O)CN2CC=C(c3ccccc3)CC2)c1 (configuration not stated)	-6%
CSCC[C@H](NC(=O)[C@H](CC(C)C)NC(=O)[C@@H](Cc1cnc[nH]1)NC(=O)[C@H](Cc1ccccc1)NC(=O)[C@@H](Cc1ccccc1)NC(=O)[C@@H](N)Cc1ccc(O)cc1)C(N)=O	-14%
NC(=NCc1ccc(Cl)cc1)SCCCc1cnc[nH]1	?
CC(Cc1ccsc1)NCc1cn[nH]c1-c1ccc(F)cc1F (configuration not stated)	14%
CN1OC[C@@H]2CN[C@H](c3ccccc3Br)C[C@@H]21	1%
CN(C)C(=O)Oc1ccc2c(c1)O/C(=C\c1ccccc1)C2=O	5%
COc1cc(OC)c(OC)cc1/C=C1/C(=O)NC(=O)N(Cc2ccccc2)C1=O	-5%

(next part)
structure	VDR inh
N#CC1(c2ccccc2)CCN(C2CC(=O)N(c3ccc(F)cc3)C2=O)CC1 (configuration not stated)	0%
CCOC(=O)c1ccc(N=Cc2c(O)n(-c3ccccc3F)c(=S)[nH]c2=O)cc1	?
COC(=O)C1=C(c2ccc(F)cc2OCc2ccccc2)C[C@@H]2CC[C@H]1N2C(=O)NCc1ccccc1	14%
COCCCn1c(N)c(C(=O)NCc2ccco2)c2nc3ccccc3nc21	2%
CCOC(=O)c1ccc(NC(=O)N2CC3CC(C2)c2cccc(=O)n2C3)cc1 (configuration not stated)	-14%
COC(=O)C1=C(c2ccc(OCc3ccccc3)cc2)C[C@@H]2CC[C@H]1N2C(=O)NCCCc1ccccc1	-11%
CCNC(=S)NCCC1=c2ccccc2=N/C1=C\c1c(O)n(C)c(=O)n(C)c1=O	32µM*
CCCCn1c(O)c(C(CC)=Nc2ccc(C(=O)O)cc2)c(=O)[nH]c1=O	-15%

Reprinted at random: 6 compounds from above.
structure	VDR inh
O=c1cccc2n1CC1CC2CN(S(=O)(=O)c2ccccc2)C1 (configuration not stated)	3%
CCN(CC)C(=O)c1ccc(NC(=O)c2ccc(-c3nn(C)c(=O)c4ccccc34)cc2)cc1	-7%&-4%
O=C1/C(=C\c2ccc([N+](=O)[O-])cc2)N2CCC1CC2	?
O=[N+]([O-])c1ccc(N2CCOCC2)c2cccnc12	-9%
CCCc1cc(=O)oc2cc(OCC(=O)N3C[C@H]4C[C@@H](C3)c3cccc(=O)n3C4)ccc12	-14%
COC(=O)C1=C(c2ccc(F)cc2OCc2ccccc2)C[C@@H]2CC[C@H]1N2C(=O)NCc1ccco1	-24%

Remaining list, next part:
structure	VDR inh
COc1ccc2c(c1)C13CCN(C)C(C2)C1CCC1(C3)OCCO1 (configuration not stated)	-8%
CC(=O)O[C@H]1CC[C@@]2(C)C(=CC[C@@H]3[C@H]2CC[C@]2(C)C(=O)CC[C@H]32)C1	-16%
CC1CCCCC1NC1CCN(C)CC1 (configuration not stated)	6%
CCCCC1(CCO)C(=O)NC(=S)NC1=O	-1%
COc1ccc2[nH]cc(CCNCc3ccc(Br)cc3)c2c1	6%
CN1CCN(C(=O)COc2ccc(S(=O)(=O)N(C)Cc3ccccc3)cc2)CC1	-14%
Cc1ccc2c(c1)CC1(CN2C)C(=O)NC(=O)N(CCc2ccccc2)C1=O (configuration not stated)	-9%
CC(=O)N1CN2CN(C(C)=O)CC(C(=O)c3ccccc3)(C2)C1	1%

New compounds follow
structure	VDR inh
O=C1NC(=O)N(CCc2ccc(F)cc2)C(=O)/C1=C/c1cccs1	18µM*
Clc1ccc(N2CC3CCC(C2)N3)nn1	3%
COCCOC(=O)c1c(C)oc2ccc(OC(=O)N(C)C)cc12	-6%
CC/C=C\C/C=C\C/C=C\C/C=C\C/C=C\CCCC(=O)NCC(=O)O	-1%
CN1C(=O)CCS(=O)(=O)[C@@H]1c1ccc(Cl)cc1	0%
COC(=O)C1=C(C(=O)OC)C2c3ccccc3C1c1ccccc12	-7%
COC(=O)C1=C(c2cccc(C#N)c2)C[C@@H]2CC[C@H]1N2C(=O)NCc1ccco1	-11%
FC(F)(F)c1ccccc1CNCCc1c[nH]c2ccccc12	3%

Later entries.
structure	VDR inh
CC(C)C[C@H]1C(=O)N2CCC[C@H]2[C@]2(O)O[C@](NC(=O)[C@@H]3C=C4c5cccc6[nH]c(Br)c(c56)CC4N(C)C3)(C(C)C)C(=O)N12 (some centres not stated)	-14%
Cc1ccsc1C(=O)C1CCCN(Cc2cnc(N3CCCC3)s2)C1 (configuration not stated)	6%
O=P(NCc1ccccc1)(Oc1ccccc1)Oc1ccccc1	18%
COc1cc2c(cc1OC)[C@@]13CCN4CC5=CCOC6CC(=O)N2C1[C@H]6[C@@H]5C[C@@H]43 (some centres not stated)	-1%
CO[C@H]1[C@@H](OC)CC(OC2OC(CO)C(O)C(O)C2O)/C(=C\C#N)[C@@H]1O (some centres not stated)	-24%
O=C(Oc1ccc([N+](=O)[O-])cc1)N1CCC(N2CCCCC2)CC1	-14%
O=c1[nH]c(=O)n(-c2ccccc2Cl)c(O)c1C=NCCN1CCCCC1	-3%
O=[N+]([O-])c1cnc[nH]1	-3%
CN1CCCC2(CCN(C(=O)c3csnn3)CC2)C1	8%
COc1cccc(CN2CC=C(c3ccc(F)cc3)CC2)c1	-12%
